Screens: PubChem BioAssay, National Center for Advancing Translational Sciences (NCATS)
VACV mCherry inh – vaccinia inhibition (mCherry reporter); Vaccinia virus mCherry reporter infection, fluorescence; about a quarter of the inactives have no number; Potency, µM (doses to about 36.5 µM), for inactives: at the top dose activity change, negative = inhibition, usual class: inhibitors; hit rate 0.63% among 310,000; AID 720579; active = well fitted inhibition curve with a large enough effect; inconclusive = small, poorly fitted or top-dose-only effect; inactive = no such curve, though single readings can be large or run the other way; tested in A549 cells; note: nearly all actives have a fitted effect of over 35% in size; inactives centre near -10
VACV Venus inh – vaccinia inhibition (Venus reporter). Vaccinia virus Venus reporter expression, fluorescence. Potency, µM (doses to about 36.5 µM), without a hit: at the top dose activity change, negative = inhibition, most hits filed as inhibitors. hit rate 0.46% among 330,000. AID 720580; active means well fitted inhibition curve with a large enough effect; inconclusive means small, poorly fitted or top-dose-only effect; inactive means no such curve, though single readings can be large or run the other way; tested in A549 cells; note: nearly all actives have a fitted effect of over 30% in size; inactives centre near -10
Starred values were filed as active, the others as inactive; i = inactive; ? = inconclusive; . = not tested or not shown; & = joins results of further samples; [ ] = another dose, or the depositor's remark. % is set by controls: 0 for no effect and ±100 for the full control effect; potency is the fitted concentration of half-maximal effect.

Compound | VACV mCherry inh | VACV Venus inh
CCOc1cc(/C=N/NC(=O)C(=O)NCc2ccc3c(c2)OCO3)ccc1OCC(=O)N1CCOCC1 | -9% | -5%
COC(=O)c1ccc(-n2nnnc2SCC(=O)Nc2cc(OC)ccc2OC)cc1 | -15% | -8%
CC(=O)c1ccc2c(ccc3ccccc32)c1 | . | -4%
Cn1ncnc1SCc1cn2cccnc2n1 | -7% | -6%
O=[N+]([O-])c1ccc(CS(=O)(=O)c2ncn[nH]2)cc1 | i | -8%
CC(C)(C)c1ccc(-c2noc(C(=O)NN)n2)cc1 | 0%[7.34 µM] | 5%[7.34 µM]
COc1ccc(Cn2c(SCc3ccc(C(=O)NCCc4ccccc4)cc3)nc3cccnc32)cc1 | -20% | ?
CCCCC(=O)NC(=S)Nc1nnn(CCC)n1 | ? | ?
O=C(CNC(=O)c1cccc(OC(F)F)c1)OCC(=O)c1ccccc1 | i | -3%
Cn1c(=O)c2cc(C(=O)N3CCN(c4cccc(C(F)(F)F)c4)CC3)sc2c2ccccc21 | i | -12%
O=S(=O)(c1ccc(S(=O)(=O)N2CCCN(Cc3ccccc3)C2)cc1)N1CCCCCC1 | i | -4%
O=S(=O)(NCCc1nnc2ccc(SCc3cccc(Cl)c3)nn12)c1ccccc1 | -18% | -11%
c1ccc(-c2ccc(-c3ccncn3)cc2)cc1 | i | 12%
CC(C)(C)OC(=O)N[C@@H](Cc1ccccc1)c1nnc(SCC(=O)c2ccc(Cl)cc2)o1 | -6% | -23%
COc1ccc(NC(=O)c2nn(C34CC5CC(CC(C5)C3)C4)cc2[N+](=O)[O-])cc1 | -13% | -8%
CCCS(=O)(=O)NC(=O)C1(C)CCN(C(=O)c2ccc(OC(F)F)cc2)C1 (stereo unspecified) | -1% | 13%
COCC(=O)N1CCC(Oc2ccc(C(=O)NCCCn3cccn3)cc2)CC1 | i | -16%
Cc1ccc2c(C)nc(/N=C(\N)NC(=O)N3c4ccccc4Sc4ccccc43)nc2c1 | -16%&-2% | -8%&-11%
O=C(Nc1ccccc1C(=O)OCn1nnc2ccccc2c1=O)c1ccco1 | -7% | -13%
CCC(C)c1ccc(O)c(/C=N/O)c1 (stereo unspecified) | -27% | -21%
CCNC(=S)N1CCn2cccc2C1c1cccnc1 (stereo unspecified) | 0% | 2%
O=C(O)c1ccccc1C(=O)c1cccc2c(F)cccc12 | i | -9%
CC(C)(C)c1cc(C(=O)NNc2cccc(Cl)c2)n(Cc2ccccc2)n1 | -27% | -16%
CCCN(CCC)CCCNC(=O)c1cn(C)c2ccc(S(=O)(=O)N3CCOCC3)cc2c1=O | -1% | 4%
Cc1c(C#N)c2ncn(CC#N)c(=O)c2n1-c1ccccc1 | . | -7%
Clc1ccccc1OCCN1CCCCC1 | i | -4%
COc1cc(-c2noc(CCC(=O)NC3CCCCC3)n2)cc(OC)c1OC | -11% | -10%
Cc1cc(C)cc(N(CC(=O)NC2CCCCC2)C(=O)CCCC(=O)Nc2ccccn2)c1 | -12% | -14%
Cc1[nH]c2ccccc2c1CCNS(=O)(=O)c1ccc(S(N)(=O)=O)cc1 | -5% | -13%
Cc1cc(C2=CC(=O)C[C@H](c3ccc4c(c3)OCO4)C2)ccc1F | -5% | -20%

Additional entries
Compound | VACV mCherry inh | VACV Venus inh
COC(=O)c1ccc(NC(=O)N2CCN(c3nnc(C)c4c(C)n(-c5ccccc5)nc34)CC2)cc1 | i | -13%
CC1CCCCC1NC(=O)CCn1ccc2cc(S(=O)(=O)N3CCCC3)ccc21 (stereo unspecified) | -19% | -10%
Cn1c(SCC(=O)NC2CCCC2)nc2cccnc21 | -8% | 0%
CCc1ccc(-n2nc(C)c3c(C)cc(=O)n(CC(=O)Nc4ccccc4C(=O)OC)c32)cc1 | -14% | -5%
COC(=O)c1ccc(CO/N=C/c2ccc(OC)cc2)o1 | -9% | -13%
O=C(COC(=O)c1ccc(Br)o1)Nc1cccc(S(=O)(=O)N2CCCCC2)c1 | -1% | -3%
NS(=O)(=O)c1cc(C(=O)OCC(=O)Nc2ccccc2[N+](=O)[O-])ccc1Cl | -18% | 9%
Cc1ccc(C(=O)O)cc1-n1c(C)cc(C=O)c1C | -8% | -6%
CCC(c1nnnn1C(C)(C)CC)N(CCN1CCOCC1)Cc1cc2cc(C)ccc2[nH]c1=O (stereo unspecified) | -15% | -6%
CCCc1[nH]c2ccc(C(=O)OC)cc2c1CCC | ? | -24%
Cc1nn(-c2ccccc2)c(Cl)c1/C=N/NS(=O)(=O)c1ccc(Br)cc1 | i | -14%
CS(=O)(=O)N(CC(=O)NCc1ccccn1)c1ccc2c(c1)OCCO2 | -15% | -1%
COc1ccc(OCc2nc3c4c(-c5ccccc5)c(-c5ccccc5)oc4ncn3n2)cc1 | i | -6%
O=C(NCc1ccc(Cl)cc1)c1ccc2c(c1)NC(=O)C(CS(=O)(=O)Cc1ccccc1Cl)N2 (stereo unspecified) | -25% | -24%
CCOc1ccc(S(=O)(=O)N(C)CC(=O)NCCN2CCOCC2)cc1 | 0% | -11%
CNc1oc(-c2ccccc2)nc1S(=O)(=O)c1ccc(C)cc1 | 0% | -9%
CC(NC(=O)CSc1nnc(-c2cccc(S(=O)(=O)N3CCCCC3)c2)o1)C12CC3CC(CC(C3)C1)C2 (stereo unspecified) | . | -13%
CCN(CC)CCNC(=O)c1cc(Br)c(N)cc1OC | -12% | -10%&-1%
O=C(Nc1ccc(S(=O)(=O)Nc2ncccn2)cc1)C1CC(=O)N(c2ccccc2)C1 (stereo unspecified) | -10% | 0%
COc1ccc(/C=C/C(=O)c2ccccn2)cc1 | i | 21%
CCCCC(=O)c1c(O)c2ccccc2oc1=O | . | -23%
Cc1ccccc1OCC(=O)NC(=S)Nc1ccc2c3c(cccc13)CC2 | i | -7%
CN(C)CCCNS(=O)(=O)c1ccc(Cl)s1 | -1% | -20%
CC(C)C[C@H]1CN([C@@H](CC(C)C)CN2CCC[C@H]2CN2C(=O)C(=O)NC[C@@H]2Cc2ccc(O)cc2)C(=O)C(=O)N1CC1CCCCCC1 | i | 5%
O=c1c(-c2ccc3c(c2)OCCO3)coc2c(CN3CCOCC3)c(O)ccc12 | -12% | ?
CC(C)(C)SC(C(=O)N1CCOCC1)c1ccc(Br)cc1 (stereo unspecified) | -7% | -4%
COc1ccc(NC(=O)CCCc2nc3ccccc3c(=O)[nH]2)cc1Cl | -3% | 2%
O=C(O)c1ccc(NCc2ccc3c(c2)OCO3)cc1 | -12% | -2%
COC(=O)[C@]12CCCCC=C1N(Cc1ccco1)C(=O)[C@H](CC(=O)NCc1cccs1)C2 | -1% | 1%
CCCSc1nnc(N2C(=O)CC(c3ccsc3)C3=C2CCCC3=O)s1 (stereo unspecified) | -7% | -10%

The list continues.
Compound | VACV mCherry inh | VACV Venus inh
Nc1ccc2[nH]ncc2c1 | i | -13%
Cc1ccc(S(=O)(=O)N2CCN(C(C(=O)Nc3ccc(F)cc3)c3ccccc3)CC2)cc1 (stereo unspecified) | -11% | -15%
Cc1ccn2c(=O)nc(SCC(=O)c3ccccc3)nc2c1 | -22% | -9%
CCOC(=O)C(C)Sc1ccc2nnc(-c3ccc(OCC)cc3)n2n1 (stereo unspecified) | -11% | -27%
Cc1cccc(C(=O)OC(C)CN2C(C)CCCC2C)c1 (stereo unspecified) | -3% | -12%
O=C(CCSc1nnc(-c2ccco2)o1)Nc1ccc(F)cc1 | -14% | -3%
COc1ccc(OC)c(C2C(C#N)=C(N)Oc3c2c(C)nn3-c2ccc(C)cc2)c1 (stereo unspecified) | i | -12%
O=C(CCCO)N/N=C/c1cc(Br)ccc1O | -9% | -22%
COc1ccccc1OCCn1cc(C#N)c2ccccc21 | . | -22%
Cc1c(CN(C)C(=O)CSc2nc(-c3ccco3)cc(C(F)(F)F)n2)cnn1C | -16% | -15%
O=C(Cc1ccc(Cl)cc1)OCC(=O)N1CCCCCC1 | -19% | -6%
CCCn1c(SCc2nc(N)nc(N3CCCCC3)n2)nc2c1c(=O)n(C)c(=O)n2C | i | -1%
Cc1ccc(S(=O)(=O)C2C(=O)NC3(C)CC2c2ccccc2O3)cc1 (stereo unspecified) | -8% | -4%
C=CCc1c(C)nc(C)nc1N/N=C/c1ccc(N(C)C)cc1 | ? | ?
c1ccc(C2Nc3ccccc3C3OCCCC23)cc1 (stereo unspecified) | -23% | -21%
O=C(CSc1nnc(-c2ccncc2)n1Cc1ccccc1)NCCc1ccccc1 | . | -5%
Cc1ccc(SCC(=O)Nc2ccc3oc(-c4cccc(Cl)c4)nc3c2)cc1 | ? | ?
Cc1cc(C)cc(N(CC(=O)Nc2ccc(C(F)(F)F)cc2)S(=O)(=O)c2c(C)[nH]c(=O)[nH]c2=O)c1 | -21% | 3%
CN(Cc1ccccc1)C(=O)c1ccc(NC(=O)Cc2ccc(NC(=O)C3CCN(S(=O)(=O)c4cccc([N+](=O)[O-])c4)CC3)cc2)cc1 | ? | -13%
O=C(Nc1cccc2c1C(=O)NC2=O)c1ccc(N2C(=O)CCC2=O)cc1 | -21% | -12%
CC(=O)N[C@@H](C=O)[C@@H](O)[C@H](O)[C@H](O)CO | -12% | -10%
CC(NC(=O)Nc1nnc(C(F)(F)F)s1)(C(F)(F)F)C(F)(F)F | 4µM* | 2.5µM*
COc1cc(O)cc(O)c1C(=O)/C=C/c1ccccc1 | ? | -20%
O=S1(=O)CC(N2CCN(CCO)CC2)CN1CCc1ccccc1 (stereo unspecified) | i | -5%
CCCCn1c(N)c(N(CCOC)C(=O)COc2ccc(C(C)=O)cc2)c(=O)[nH]c1=O | -6% | -8%
COc1ccc(Cc2nnc(NC(=O)C(C)C)s2)cc1 | -5% | -7%
CCNC(=O)NC(=O)C(C)OC(=O)CCCc1nc2ccccc2s1 (stereo unspecified) | i | -14%
O=C(CCN1CCOCC1)N1CCCC(Nc2ccc(F)cc2)C1 (stereo unspecified) | -12% | -12%
CC(CNC(=O)[C@@H](Cc1ccccc1)NC(=O)CC[C@H]1O[C@@H](n2ccc(=O)[nH]c2=O)[C@H](O)[C@@H]1O)c1ccccc1 (stereo partly specified) | 13% | -3%
CC(=O)N(CCCCN1C(=O)c2ccccc2C1=O)c1ccc(C)cc1 | -26% | -22%

Sorted by SMILES length (low to high): part of the list above.
Compound | VACV mCherry inh | VACV Venus inh
O=C(Cc1ccc(Cl)cc1)OCC(=O)N1CCCCCC1 | -19% | -6%
O=C(CSc1nnc(-c2ccncc2)n1Cc1ccccc1)NCCc1ccccc1 | . | -5%
Cc1cc(C)cc(N(CC(=O)Nc2ccc(C(F)(F)F)cc2)S(=O)(=O)c2c(C)[nH]c(=O)[nH]c2=O)c1 | -21% | 3%
CC(CNC(=O)[C@@H](Cc1ccccc1)NC(=O)CC[C@H]1O[C@@H](n2ccc(=O)[nH]c2=O)[C@H](O)[C@@H]1O)c1ccccc1 (stereo partly specified) | 13% | -3%

The list goes on:
Compound | VACV mCherry inh | VACV Venus inh
Cc1oc2cc3oc(=O)c(CCC(=O)NCc4ccccn4)c(C)c3cc2c1C | 2% | -5%
Cc1ccc(S(=O)(=O)NNC(=O)Nc2cccc(F)c2)c(C)c1 | -13% | -18%
CCN(CC)c1ccc(NC(=O)c2cnc3c(-c4ccccc4)c(C)nn3c2C)c(C)c1 | -5% | -10%
CC(C)(C)OC(=O)N1CCN(C(=O)c2[nH]cnc2C(=O)Nc2ccccc2F)CC1 | i | -11%
OCC1(Cc2ccc(Cl)cc2)CCN(Cc2ccc(F)c(F)c2)CC1 | -10%[7.34 µM] | -3%[7.34 µM]
O=C(c1ccc(OC2CCN(CCc3ccccc3)CC2)cc1)N1CCCC(O)C1 (stereo unspecified) | -29% | -21%
C=CCOC(=O)C1=C[C@H](C2CCCCC2)C[C@H](OCc2ccc(CO)cc2)O1 | -15% | -6%
Cc1ccc(S(=O)(=O)n2cnc3ccccc32)cc1[N+](=O)[O-] | -23% | 1%
O=C1NCCN1C(=O)c1cccc(Cl)c1 | -2% | 2%
Cc1cc(NC(=O)c2c(F)cccc2Cl)n(-c2nc3ccccc3[nH]2)n1 | -22%[1.46 µM] | ?
O=C(CCCOc1ccccc1)Nc1ccc(Cl)cn1 | ? | -28%
COc1ccc(Nc2nccc(-c3ccc([N+](=O)[O-])cc3)n2)cc1 | -25% | -14%
Cc1cn([C@H]2C[C@H](O)[C@@H](CNCc3ccc(-c4cc(Cl)ccc4C(F)(F)F)o3)O2)c(=O)[nH]c1=O | -17% | -27%
CCOc1ccc(C(=S)N2CCCC2)cc1OC | -9% | -7%
O=C1NC[C@@H](CCCCN2C[C@H](Cc3ccccc3)N(CCc3ccccc3)C(=O)C2=O)N(Cc2ccccc2)C1=O | i | -7%
COc1ccc(OC)c(-c2csc(NC(=O)C3CSC4(C)CCC(=O)N34)n2)c1 (stereo unspecified) | -25% | ?
CCC(O)c1cc2c(cc1NC(=O)c1cccc(Br)c1)OCCO2 (stereo unspecified) | -7% | -6%
Cc1ccc(C(=O)NCC(=O)OCCCOC(=O)CNC(=O)c2ccc(C)c(C)c2)cc1C | -20% | -15%
CCc1noc(C)c1C(=O)Nc1cc(Cl)ccc1-n1cncn1 | -9% | -4%
CCOc1ccc(C(=O)N2CCN(C(=O)c3ccco3)CC2)cc1OCC | 0% | -8%
